Mtb growth: Mycobacterium tuberculosis H37Rv growth inhibition, putative kinase inhibitor library, confirmatory dose response (AID 2842) | M. tuberculosis H37Rv growth inhibition; higher % means a stronger effect; some inactives read as strong as hits | actives 5.2% (n = 24,000) | one-dose inhibition, % at 10 µg/mL; IC90 in µg/mL for titrated hits;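 active means confirmed in a dose series; about a fifth of its hits are not listed in these tables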;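 further: bacteria incubated one week before Alamar blue readout; 0% = bacteria only wells and 100% = bacteria with high antibiotic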
Numbers without * were called inactive.

compound,Mtb growth
CC(C)c1ccc(-c2csc(NC(=O)c3ccc(S(=O)(=O)N4CCc5ccccc5C4)cc3)n2)cc1,-12%
CC1CCc2c(sc(Nc3nc4c(F)cccc4s3)c2C(N)=O)C1 (stereo not drawn),8.6µg/mL*
Nc1ncnc(NNC(=O)CNC(=O)c2c(F)cccc2Cl)c1[N+](=O)[O-],6%
Cc1csc2nc(O)c(C(=O)NC(C)C)c(=O)n12,-10%
O=C(CCl)Nc1c(C(=O)Nc2ccc3c(c2)OCCO3)oc2ccccc12,68%
COc1ccc(N2CCN(C(CNC(=O)OCc3ccccc3)c3ccco3)CC2)cc1 (stereo not drawn),84%
CCOC(=O)c1nn(-c2ccc(Cl)cc2)c(=O)c2c(NC(=O)c3ccccc3)scc12,-4%
O=C(CCCn1c(=O)[nH]c2ccccc2c1=O)NCc1ccco1,-3%
O=C(Nc1nc(-c2ccccc2)cs1)c1ccc(S(=O)(=O)N2CCCC2)cc1,7%
Cc1c(Cc2ccc3c(c2)OCO3)sc(NC(=O)C(C)(C)C)c1C#N,0%

2 entries from above in a different format:
COc1ccc(N2CCN(C(CNC(=O)OCc3ccccc3)c3ccco3)CC2)cc1 (stereo not drawn)
  Mtb growth: 84%
CCOC(=O)c1nn(-c2ccc(Cl)cc2)c(=O)c2c(NC(=O)c3ccccc3)scc12
  Mtb growth: -4%

Next section:
compound,Mtb growth
COc1cc2ccccc2cc1C(=O)Nc1nc2ccc3ccccc3c2s1,3%
c1ccc(Oc2ccc(Nc3ncnc4nc[nH]c34)cc2)cc1,13%
C=CCNC(=O)CCn1c(=O)oc2ccccc21,-3%
COc1cccc(N2CC(NC(=O)NCC3CCCO3)CC2=O)c1 (stereo not drawn),-7%
COc1cccc2sc(N(C)c3ccccc3)nc12,12%
Cc1ccc(CNC(=O)C(=O)Nc2cc3c4c(c2)CCC(=O)N4CCC3)cc1,-1%
Cc1cc(N2CCN(CCO)CC2)n2ncc(-c3ccccc3)c2n1,4%
OCCN1CCN(c2nc(Nc3cccc(Cl)c3)c3cnn(-c4ccccc4)c3n2)CC1,0.73µg/mL*
CS(=O)(=O)c1ccc2nc(NC(=O)c3ccc(Cl)s3)sc2c1,10%
O=C(OCN1C(=O)C(=O)c2ccccc21)c1ccc(Cl)cc1,-3%
Cc1cccc(NC(=O)Nc2nc3ccc(Cl)cc3s2)c1,7%
Cc1cc(NC(=O)CSc2nnc(Cc3cc(=O)[nH]c(=O)[nH]3)n2-c2ccc(F)cc2)no1,10%
COc1ccc(NC(=O)c2oc3ccccc3c2NC(=O)Cc2cccc(C)c2)cc1OC,-4%
Cc1ccc(C)c2[nH]c(=O)c(CCNC(=O)c3ccc(Br)o3)cc12,2%
Cc1ccc(C)c2[nH]c(=O)c(CCNC(=O)CCCc3ccccc3)cc12,1%
Nc1c(C(=O)Nc2ccc(Br)cc2)sc2[nH]c(=O)c(C(=O)O)cc12,-12%
CCN1CCN(C(c2cccs2)c2sc3nc(C)nn3c2O)CC1 (stereo not drawn),-6%
COc1cc([N+](=O)[O-])ccc1NC(=O)CSc1cccc2cccnc12,18%
Nc1nc(SCC(=O)Nc2ccc(F)cc2F)[nH]c(=O)c1NC(=O)c1ccc(Br)cc1,-9%
Clc1cccc(CSc2nnc3ccc(-c4ccccn4)nn23)c1,3%
O=C(Cc1cccc2ccccc12)Nc1nnc(-c2cc(Cl)ccc2Cl)o1,95µg/mL*
Cc1ccc(CC2S/C(=C(/C#N)C(=O)NCCc3ccccc3)N(c3ccc(F)cc3)C2=O)cc1 (stereo not drawn),0%
O=C(CSc1nc2ccccc2o1)OCC(=O)c1ccc(F)cc1,-14%
CCN1C(=O)CCc2cc(NS(=O)(=O)C(C)C)ccc21,5%
O=c1nc2c(S(=O)(=O)O)ccc3c2=c(/c1=C(\O)c1ccccc1)c1ccccc1c3=O,-12%
CC1C(=O)N2CCCc3cc(NC(=O)c4c(F)cccc4Cl)cc1c32 (stereo not drawn),-1%
CC(=O)C(Sc1nc(-c2ccc(F)cc2)nc2c1c(=O)n(C)c(=O)n2C)C(C)=O,-2%
CCOc1ccc2c(c1)c(=O)c(S(=O)(=O)c1ccc(F)cc1)cn2Cc1ccc(C)cc1,1%
COc1ccccc1NC(=O)c1oc2ccccc2c1NC(=O)CC(c1ccccc1)c1ccccc1,-9%
Brc1cccc(/C=N/Nc2ncnc3nc[nH]c23)c1,25%

Next part, overlapping the part above by 2 compounds.
compound,Mtb growth
COc1ccccc1NC(=O)c1oc2ccccc2c1NC(=O)CC(c1ccccc1)c1ccccc1,-9%
Brc1cccc(/C=N/Nc2ncnc3nc[nH]c23)c1,25%
O=C(CSc1ccc([N+](=O)[O-])cc1[N+](=O)[O-])Nc1cccc(C(F)(F)F)c1,5%
O=C(Nc1ccc2c(c1)OCO2)c1c[nH]c(=O)n(-c2ccc(F)cc2)c1=O,70%
Cc1cc(SCC(=O)Nc2nccs2)nc(=O)[nH]1,6%
O=C(CSc1nnc2ccc(-c3cccnc3)nn12)c1cccs1,3%
COc1ccc(Cn2nnc(C(=O)Nc3cccc(C)c3)c2N)cc1Br,-9%
Cc1ccc(Nc2nc(N3CCN(c4ccccc4)CC3)nc3nccnc23)cc1C,32µg/mL*
O=C(CSc1ccc2nnc(-c3ccncc3)n2n1)NCc1ccco1,-5%
O=C(CCc1ccccc1)N/N=C/c1ccccc1,-6%
CCN1CCN(c2cc(=O)n(Cc3ccc(F)cc3)c(=O)[nH]2)CC1,-11%
O=C(NCc1nnnn1-c1cccc(F)c1)c1cc2ccccc2oc1=O,57%
CC1CC(NC(=O)C(=O)c2c[nH]c3ccccc23)CC(C)(C)C1 (stereo not drawn),0%
COc1cccc(Cn2cc3c(-c4ccc(Cl)cc4)nnc-3c3cc4c(cc32)OCO4)c1,2%
COc1ccc(-c2nc3c(c(SCC(=O)Nc4ccccc4OC)n2)Cc2cccc(C)c2O3)cc1,0%
O=C(CSc1ncnc2ccccc12)NCc1ccco1,-9%
CCOC(=O)CSc1nnc(NC(=O)CC(C)C)s1,-9%
CC(C)(C)c1ccc(C(=O)NCc2nnc(SCC(=O)NCc3ccc4c(c3)OCO4)o2)cc1,-5%
Nc1cc(OC(=O)c2c(F)cccc2Cl)nn1S(=O)(=O)c1ccccc1,1%
COc1ccc(N2CC(NC(=O)Nc3ccncc3)CC2=O)cc1 (stereo not drawn),0%
Cc1ccc(NC(=O)CN2N=NC3C(=O)N(c4ccc(C)c(Cl)c4)C(=O)C32)cc1F (stereo not drawn),-15%
CC(=O)N1CCc2c(sc(NC(=O)COc3ccc(Cl)cc3)c2C#N)C1,7%
O=C(COc1ccccc1)Nc1nnc(-c2ccc(Br)cc2)o1,-5%
CCOC(=O)c1oc2ccccc2c1NC(=O)c1ccc(OC)cc1,12%
Cc1ccc(-c2nnc3ccc(SCC(=O)Nc4ccccc4F)nn23)cc1,-3%
COc1ccc(C(=O)Nc2ccc3c(c2)N(C(C)=O)CCC3)cc1,12%
COc1ccc(C2C3=C(CC(C)(C)CC3=O)Nc3nc(SC(C)C)[nH]c(=O)c32)cc1 (stereo not drawn),11%
N#CC1=C(N)Oc2c(oc(CO)cc2=O)C1c1ccc2c(c1)OCO2 (stereo not drawn),0%
O=C(Nc1ccc(S(=O)(=O)N2CCCC2)cc1)c1cc(-c2ccccc2)nc2ccccc12,-6%
COc1ccc2c(c1)O/C(=C\c1ccccc1OC(=O)N1CCOCC1)C2=O,-17%
COc1ccc(C(c2sc3ncnn3c2O)N2CCCCC2)cc1OC (stereo not drawn),-11%
COc1cccc(N2CC(NC(=O)N3CCN(C(=O)c4ccco4)CC3)CC2=O)c1 (stereo not drawn),-3%
CCCc1cc(=O)[nH]c(SCC(=O)N2CCc3ccccc3C2)n1,-1%
COc1cccc(C(c2sc3ncnn3c2O)N2CCCC(C)C2)c1 (stereo not drawn),-1%
CCCn1c(SCC(=O)OCC)nc2c1c(=O)[nH]c(=O)n2C,11%
COc1ccc(N2CC(NC(=O)N3CCN(c4cccc(Cl)c4)CC3)CC2=O)cc1OC (stereo not drawn),50%
Cc1cc2cc(CCNC(=O)c3ccc(F)cc3)c(=O)[nH]c2cc1C,6%
CCCc1cc(=O)[nH]c2nnc(SCC(=O)Nc3cccc(Cl)c3)n12,-9%
O=C(C1=C(O)C(=O)N(c2nncs2)C1c1ccc(F)cc1)c1cccs1 (stereo not drawn),3%
Nc1nc(SCC(=O)Nc2cccc(Cl)c2)[nH]c(=O)c1NC(=O)c1ccccc1F,-10%
CCOc1ccc(N2CC(NC(=O)Nc3ccc4c(c3)OCO4)CC2=O)cc1 (stereo not drawn),-2%
Cc1cccc(NC(=O)CSc2nc(N)c(NC(=O)c3cccs3)c(=O)[nH]2)c1,-11%
COC(=O)c1ccc2nc(NC(=O)c3cc(Cl)ccc3Cl)sc2c1,4%
CCc1ccc2oc3c(c(=O)c2c1)C(c1ccc(C(=O)OC)cc1)N(c1cc(C)on1)C3=O (stereo not drawn),-5%
NC(=O)CSc1nc2c(c(=O)[nH]1)CCCC2,-18%
CCOC(=O)c1oc2ccccc2c1NC(=O)c1cc2ccccc2o1,6%
O=C(O)c1cccc(N2C(=O)CC(Nc3ccc(F)cc3)C2=O)c1 (stereo not drawn),-17%
Fc1cccc(Cl)c1/C=N/Nc1ncnc2nc[nH]c12,13%
CC1=CS/C(=C(/C#N)C(=O)NCc2ccco2)N1c1ccccc1,-4%
COc1ccc(-c2cccc(NS(=O)(=O)c3cc([N+](=O)[O-])ccc3Cl)c2)nn1,4%
Cn1c(=O)c2[nH]c(NCCc3ccccc3)nc2n(C)c1=O,4%
CC1CN(S(=O)(=O)c2c[nH]c(=O)[nH]c2=O)CC(C)O1 (stereo not drawn),-22%

Additional records follow.
compound,Mtb growth
CC1CCN(c2ccc(-c3cccc(NC(=O)C(F)(F)F)c3)nn2)CC1,8%
Cc1ccc2c(c1)C(=O)C(=O)N2CC(=O)OCc1ccccc1,-8%
Cc1nc2sc(C(c3ccccc3F)N3CC(C)CC(C)C3)c(O)n2n1 (stereo not drawn),2%
Cn1c(=O)c2[nH]c(CNCCc3ccccc3)nc2n(C)c1=O,8%
O=C1c2ccccc2C(=O)N1CNc1ccccc1Cl,-9%
Cc1nc2c(ccc3nc(NC(=O)c4sc5ccccc5c4Cl)sc32)s1,6%
Cc1ccc(O)c(C(=O)/C=C/c2cc(Br)cc3c2OCOC3)c1,6%
CC(C)c1nnc(NC(=O)c2ccc(N3C(=O)CCC3=O)cc2)s1,-1%
CCC(Sc1nnc2[nH]c(=O)c(C)c(C)n12)C(=O)OC (stereo not drawn),0%
CCOC(=O)c1nn(-c2cccc(Cl)c2)c(=O)c2c(NC(=O)c3ccc(S(=O)(=O)N(C)C)cc3)scc12,5%
O=C(Nc1cccc(Cl)c1)Nc1c2c(nn1-c1ccccc1)CSC2,20µg/mL*
CCOC(=O)c1nn(-c2ccccc2F)c(=O)c2c(NC(=O)C3CC3)scc12,0%
Cc1ccc(COc2cccc3c2CCNC3=O)cc1,-5%
COc1ccccc1-n1c(=O)[nH]c2c(C(N)=O)nc(-c3ccc(C)o3)nc21,5%
O=C(Nc1c(C(=O)Nc2ccc([N+](=O)[O-])cc2)oc2ccccc12)c1ccccc1I,5%
CC(NC(=O)C(=O)Nc1cc2c3c(c1)CCC(=O)N3CCC2)c1ccccc1 (stereo not drawn),22%
O=C(Cn1cnc2c(nnn2Cc2ccccc2F)c1=O)c1ccccc1,-9%
O=C(NNc1ncnc2c1cnn2-c1ccc(Cl)c(Cl)c1)c1cccc(Cl)c1,-4%
CC(=O)Nc1sc2c(c1C(N)=O)CCN(C(C)=O)C2,12%
COc1cccc2sc(Nc3nc4ccc(NC(C)=O)cc4s3)nc12,14%
O=C(Cc1ccc(F)cc1)Nc1nnc(-c2ccc(Cl)cc2Cl)s1,15%
O=C(CSc1ncnc2c1cnn2-c1ccccc1)c1ccc2c(c1)OCCO2,-11%
CSc1ccc2nc(Nc3ccccc3C)sc2c1,57%
Cc1cc(NC(=O)CSc2ncnc3ccccc23)no1,-4%
O=C(COC(=O)CCCC1=NS(=O)(=O)c2ccccc2N1)Nc1cccc(C(F)(F)F)c1,-7%
c1ccc(CSc2nnc3ccc(-c4ccccn4)nn23)cc1,0%
CCOC(=O)c1nn(-c2ccc(F)cc2)c(=O)c2c(NC(=O)CC(C)C)scc12,-9%
c1ccc(-n2ncc3c(N4CCCC4)ncnc32)cc1,9%
CCOc1ccccc1NC(=O)c1oc2ccccc2c1NC(=O)CCCc1ccccc1,5%
CCCN(CCC)S(=O)(=O)c1ccc(C(=O)Nc2sc3c(c2C(N)=O)CCN(CC)C3)cc1,10%
CCOC(=O)c1[nH]c2ccccc2c1NC(=O)/C=C/c1ccccc1,5%
Nc1ncnc(NNC(=O)CNC(=O)c2ccco2)c1[N+](=O)[O-],-1%
O=C(NCCCn1ccnc1)c1cc2cc([N+](=O)[O-])ccc2oc1=O,-8%
O=C(CCc1ccccc1)Nc1nnc(-c2ccncc2)o1,-1%
CCOC(=O)c1nn(-c2ccc(OC)cc2)c(=O)c2c(NC(=O)CCCl)scc12,75%

Exported as labelled records: entries from further up
compound: Nc1ncnc(NNC(=O)CNC(=O)c2ccco2)c1[N+](=O)[O-]
  Mtb growth: -1%
compound: O=C(NCCCn1ccnc1)c1cc2cc([N+](=O)[O-])ccc2oc1=O
  Mtb growth: -8%

This is a subset; count on the stated rates, not on these rows.
